Screening results (PubChem)
Ecoli rRNA inh: selective bacterial rRNA inhibition in E. coli. E. coli WT GFP vs humanized-ribosome RFP mutants, fluorescence, 24 h; active compounds read low; DMSO median 0, no signal -100. GFP signal change (wild-type ribosome), % (test concentration not listed). hit rate 1.6% among 350,000. AID 720706;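 active = significant combined selectivity score with lowered wild-type GFP, culture density cut under 30%, mutant RFP and density less affected; inactive = any of these conditions unmet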; note: one replicate is shown; some compounds called inactive have numbers as strong as hits
Calb FLC: affects C. albicans growth with fluconazole | growth inhibition, % (no concentration beside the values) | hit rate 0.57% among 300,000 | C. albicans CaCi-2 (fluconazole-resistant clinical isolate) + fluconazole, Alamar Blue growth, 48 h;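 active = most replicates above 75%; inconclusive = exactly half above 75%; inactive = most below 75%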;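 note: all wells also contain fluconazole at 8 µg/ml as a sub-toxic cotreatment; 0% = median of DMSO wells and 100% = median of geldanamycin control wells; wells of about 8 µL received 7.5 nL stock; the first replicate is given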
RanGTP-Impb inh: inhibitors of RanGTP-importin-beta interaction, primary screen, biochemical, FRET, CFP-Ran, YFP-importin-beta, homogeneous; inhibition, % (test concentration not listed); hit rate 1.1% among 300,000; cell-free CFP-Ran/YFP-importin-beta FRET ratio;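 active = most replicates above 15%; inconclusive = exactly half above 15%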;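 note: 0% = DMSO wells and 100% = Ran loaded with GDP instead of GTP; wells of about 40 µL received 100 nL stock; the first replicate is given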
Beta cell apopt: beta cell apoptosis inhibition; INS-1E cytokine-induced death, ATP luminescence, 48 h; percent of positive-control rescue, neutral wells zero; protection from apoptosis, % (concentration not given with the values); hit rate 0.8% among 300,000; AID 435005;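 active = all replicates at 75% or more, or half of them and the mean; inconclusive = half reach 75% but not the mean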;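 note: 0% = cytokine-treated negative control wells and 100% = positive control rescue; higher means more ATP so stronger rescue from cytokine killing; wells of about 40 µL received 100 nL stock; the first replicate is given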
FGF22 binding: FGF22 (human) thermal shift binding. recombinant FGF22 thermal shift, SYPRO orange fluorescence; percent of sucrose octasulfate shift, DMSO zero. calls only at 9.99 µM. hit rate 1.5% among 340,000;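 active = melting point raised past a set limit in the mean and every replicate; inconclusive = no clear call; three in four hits are not shown here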
Target sequence (Q9HCT0 whole entry, looked up): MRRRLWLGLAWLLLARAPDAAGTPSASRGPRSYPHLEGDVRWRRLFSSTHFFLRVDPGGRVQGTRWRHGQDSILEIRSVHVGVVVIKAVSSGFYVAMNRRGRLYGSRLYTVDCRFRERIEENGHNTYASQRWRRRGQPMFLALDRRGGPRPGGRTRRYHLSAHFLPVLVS
MLL AF4-AF9 inh: blocks AF4 peptide binding to human AF9; P42568; AID 651704; inhibition, % at 10 µM; hit rate 0.47% among 350,000; AlphaScreen, biotin-AF4 peptide binding to FLAG-AF9;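 active = every replicate reaching a set inhibition limit, whatever the replicate mean, cut at about 25% in these data; inconclusive = mean inhibition reaches that limit but some replicates miss it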;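 note: 0% = plate neutral control median and 100% = total signal loss; the record names both 10 and 1 µM as test concentration; the first replicate is given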
Target sequence (P42568 whole entry, looked up): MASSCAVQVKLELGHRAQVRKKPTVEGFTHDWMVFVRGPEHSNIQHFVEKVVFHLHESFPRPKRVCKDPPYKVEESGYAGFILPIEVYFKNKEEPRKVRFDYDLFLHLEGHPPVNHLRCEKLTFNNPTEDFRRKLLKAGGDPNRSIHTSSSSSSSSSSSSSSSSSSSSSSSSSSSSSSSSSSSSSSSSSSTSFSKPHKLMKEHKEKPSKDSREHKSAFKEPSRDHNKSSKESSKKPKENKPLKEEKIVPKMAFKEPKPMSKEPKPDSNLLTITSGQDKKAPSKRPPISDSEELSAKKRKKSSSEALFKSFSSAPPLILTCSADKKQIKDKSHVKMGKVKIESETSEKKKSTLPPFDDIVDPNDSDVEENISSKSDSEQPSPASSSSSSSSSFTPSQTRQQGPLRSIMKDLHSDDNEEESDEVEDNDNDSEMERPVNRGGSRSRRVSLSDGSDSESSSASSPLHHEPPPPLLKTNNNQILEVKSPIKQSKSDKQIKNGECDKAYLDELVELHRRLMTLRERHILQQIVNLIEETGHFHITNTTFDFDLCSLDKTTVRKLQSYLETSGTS
ALR H2O2 inh: inhibitors of human sulfhydryl oxidase ALR. P55789. hit rate 3.8% among 290,000. inhibition, % (test concentration not listed). purified ALR, DTT oxidation, H2O2 HRP-luminol luminescence;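 active = mean and each replicate at 75% or more; inconclusive = only one of the two met; inactive = neither met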;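 note: stock transfer was 7.5 nL into about 7.5 µL; 0% = neutral wells and 100% = wells with inactivated enzyme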
Target sequence (P55789 whole entry, looked up): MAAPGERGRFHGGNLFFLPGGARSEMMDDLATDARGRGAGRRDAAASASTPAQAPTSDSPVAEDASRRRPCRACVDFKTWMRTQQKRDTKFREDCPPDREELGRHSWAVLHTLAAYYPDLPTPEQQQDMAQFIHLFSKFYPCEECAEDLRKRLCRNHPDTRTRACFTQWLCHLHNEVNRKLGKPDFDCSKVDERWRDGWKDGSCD
T cruzi inh: blocks replication of Trypanosoma cruzi; hit rate 1.4% among 300,000; T. cruzi beta-gal in NIH3T3, luminescence, 90 h; inhibition, % (concentration not given with the values); AID 1885;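 active = mean inhibition across valid replicates above about 55%, limit read from the data; inconclusive = mean below that limit but half or more replicates reach it; inactive = mean below it, under half of replicates reach it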;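 note: signal also drops with host cell toxicity which is not excluded here; 0% = plate median of DMSO wells and 100% = zero luminescence signal; higher percent means less beta-gal luminescence so fewer parasites; stock transfer was 50 nL into about 50 µL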
Ecoli rRNA inh OD600: further read-out of Ecoli rRNA inh, marked with its call; OD600 change, %; measured here: OD600 growth;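 optical density of the mix in the first replicate; 0 = DMSO median and -100 = no signal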
Ecoli rRNA inh RFP: second read-out of Ecoli rRNA inh, no call of its own (marks repeat the call); RFP signal change, %; measured here: RFP humanized mutant strains;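 first replicate; 0 = DMSO median and -100 = no signal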
An asterisk follows results filed as active; i = inactive; ? = inconclusive; · = no result given. This is a subset, so the mix of outcomes need not match the whole.

Under each structure – Beta cell apopt	RanGTP-Impb inh	Ecoli rRNA inh OD600	T cruzi inh	MLL AF4-AF9 inh	Ecoli rRNA inh	FGF22 binding	ALR H2O2 inh	Calb FLC	Ecoli rRNA inh RFP
- C=CCc1cccc(/C=N/NC(=O)CCCNc2ccc(C)cc2)c1O
  -2	-3.1	-28	-14	0.3	-29	i	18	-2	-7.9
- O=S(=O)(c1ccccc1F)N1CCN(Cc2cc3c(cc2O)OCO3)CC1
  5	·	·	·	1.4	·	i	6	·	·
- O=C(NC(=S)N1CCCCC1CO)c1cccs1 (stereo not given)
  -5	·	7	·	-1.8	14	i	7	·	1.1
- COc1ccccc1NC(=O)CCc1c(C)[nH]c(=O)c(C#N)c1C
  -3	1.9	·	-9	·	·	·	·	7	·
- COc1ccc(NC(=O)[C@@H](NS(=O)(=O)c2cccc(Cl)c2)C(C)C)cc1S(=O)(=O)N1CCOCC1
  -1	·	-7	·	4.9	-7	i	-7	·	4.0
- CC(=O)c1cccc(N(C(=O)CNC(=O)c2ccco2)C(C(=O)NC2CCCC2)c2ccncc2)c1 (stereo not given)
  -4	-0.3	11	-17	1.3	9	i	-9	-10	0.3
- O=C(OCCC1Oc2cccnc2NC1=O)c1ccc([N+](=O)[O-])cc1 (stereo not given)
  5	-2.8	5	1	-3.1	4	i	8	2	-6.9
- COc1c(O)c(=O)n2c3ccccc3c3ccnc1c32
  -4	-4.9	·	-5	-4.1	·	i	98*	-4	·
- COc1ccc2c(c1OC)C(=O)OC2Nc1ccccn1 (stereo not given)
  -10	0.6	·	-3	·	·	·	-3	-13	·
- Cc1cc(NC(=O)CCCOc2ccc(Cl)cc2Cl)no1
  -5	5.1	·	-3	·	·	·	-8	-6	·
- O=C1C2CCCN2C(=O)N1CCN1CCN(c2ccccc2)CC1 (stereo not given)
  -1	-4.0	8	-25	7.7	10	i	·	-4	-1.3
- CC(C)(C)c1ccc(C(=O)N2CCCN(C(=O)c3ccc(C(C)(C)C)cc3)CC2)cc1
  -4	-0.2	·	33	·	·	·	-21	-19	·
- CCN(C(=O)Nc1ccccc1)c1ccccc1
  4	10	·	-7	·	·	·	-21	-1	·
- O=C(/C=C/c1ccccc1)Nc1ccc2c(c1)C(=O)NC2=O
  -1	3.0	-7	0	50*	-11	i	-1	5	-0.9
- CN(C)C(N)=NCCC[C@H](N)C(=O)O
  ·	-1.7	·	-17	-1.4	·	i	1	-13	·
- O=C(OC(C(=O)NC1CCCC1)c1ccccc1F)c1ccco1 (stereo not given)
  -2	-7.4	·	17	·	·	·	-7	-15	·
- Cc1[nH]c2ccccc2c1-c1csc(NC(=O)CSCC(=O)O)n1
  -4	-1.3	-4	27	-3.9	-1	i	100*	4	-4.3
- COc1ccc(CN2CCCC(C(=O)N3CCCCC3)C2)cc1OC (stereo not given)
  -4	-0.3	16	29	-2.2	4	i	-10	-2	0.9
- CC1Cc2ccccc2N1C(=O)CCS(=O)(=O)c1ccc2c(c1)NC(=O)CS2 (stereo not given)
  -2	2.8	-14	-4	3.5	-8	i	-1	0	0.0
- COC(=O)c1sccc1NC(=O)c1ccc(Br)s1
  2	8.7	·	4	·	·	·	0	-3	·
- O=C(NC(=S)NCc1ccccc1)c1ccccc1[N+](=O)[O-]
  -4	-1.5	-3	-12	3.0	0	i	8	-26	0.0
- Cc1nc2ccc(NC(=S)NCCCO)cc2nc1C
  -5	-1.8	-3	-12	-2.8	4	i	18	36	-1.7
- COC(=O)c1ccc(C(=O)OC)c(NC(=O)CN2CCN(c3ccccc3)CC2)c1
  ·	-0.6	11	9	7.0	11	i	·	10	4.5
- COc1ccc(C2C(C(C)=O)=C(C)N=c3s/c(=C\c4ccc5c(c4)OCO5)c(=O)n32)c(OC)c1 (stereo not given)
  6	1.0	·	39	·	·	·	1	13	·
- Cc1onc(C(=O)NC2CCCCC2)c1[N+](=O)[O-]
  -9	-19	·	18	·	·	·	0	-2	·
- COc1ccc(NC(=O)c2sc3ncnc(N4CCN(c5ccccn5)CC4)c3c2C)cc1Cl
  ·	4.3	12	35	2.0	11	i	2	-1	0.1
- COC(C(=O)Nc1ccc(C(N)=O)cc1)c1ccccc1 (stereo not given)
  -4	-3.3	0	-9	-0.7	11	i	0	-9	2.2
- COc1ccc(C(=O)CSc2nnc3n2CCCN3C(=O)Nc2ccccc2)cc1
  1	-1.1	-6	-9	1.9	11	i	-1	-5	2.4
- Cc1c(N(C)C(=O)C23CC4CC(CC(C4)C2)C3)c(=O)n(-c2ccccc2)n1C
  0	4.2	·	8	·	·	·	-3	-11	·
- O=C(Nc1ccc2ccccc2c1)c1cccc([N+](=O)[O-])c1
  -32	-2.4	14	22	1.8	2	i	-3	4	-2.8
- O=C(Nc1ccccn1)c1cccnc1
  -4	4.0	·	-5	·	·	·	-22	-1	·
- Cc1cccc(C)c1OCC(=O)Nc1nnc(C2CCCO2)s1 (stereo not given)
  -2	-3.5	·	-8	·	·	·	-5	-5	·
- O=C(Nc1ccccc1Cl)N1CCN(c2ccc3nncn3n2)CC1
  0	-0.9	11	-3	2.4	13	i	30	2	1.7
- CC1=NN(c2nc(-c3ccc(Cl)cc3)cs2)C(=O)C1
  -5	3.7	·	-11	·	·	·	1	1	·
- O=[N+]([O-])c1c(NCc2ccco2)ccc2nonc12
  -1	2.2	10	-22	2.5	6	i	-22	27	1.1
- Cc1cc(C)nc(Sc2ncnc3sc4c(c23)CCC4)n1
  -7	-4.6	·	6	·	·	·	26	-3	·
- O=C(O)/C(=C/c1ccco1)NC(=O)c1ccccc1
  1	0.9	·	-6	-3.5	·	i	14	18	·
- O=C(NCc1cccc(C(F)(F)F)c1)C1CC2Cn3c(nc4ccccc43)C2N1Cc1ccccc1 (stereo not given)
  12	0.1	17	7	-8.9	5	i	-5	12	2.6
- O=C(CN(Cc1ccco1)C(=O)c1ccc(Cl)cc1)Nc1ccc(Cl)c(Cl)c1
  -5	4.9	·	-1	·	·	·	·	-20	·
- COc1cc(CNc2ccc3[nH]c(=O)[nH]c3c2)ccc1OCc1ccccc1F
  -3	4.8	18	-47	0.7	5	i	64	35	2.8
- Cc1nc2ccc(S(=O)(=O)NCC(=O)N3CCc4ccccc43)cc2s1
  -7	0.2	·	-5	·	·	·	-15	-3	·
- CCOc1ccc(N(C(=O)c2snc(C(N)=O)c2N)C(C(=O)NC2CCCC2)C(C)C)cc1 (stereo not given)
  -4	0.3	20	15	0.8	5	i	·	-6	2.2
- O=C(Nc1cccc(Cl)c1Cl)C1CC(=O)N(c2ccc(Br)cc2)C1 (stereo not given)
  -6	-1.3	·	0	·	·	·	·	10	·
- O=C(CNS(=O)(=O)c1ccccc1)N1CCN(c2ccccc2)CC1
  -4	?	8	-13	·	9	·	?	-9	6.7
- Cc1nnc(NC(=O)CCN2C(=O)/C(=C\c3ccccc3)SC2=S)s1
  1	-1.1	4	2	-1.0	7	i	2	1	1.1
- NNC(=O)c1nc[nH]c1C(=O)Nc1ccccc1[N+](=O)[O-]
  -3	-1.4	0	-5	-2.9	2	i	-1	15	-1.0
- COC(=O)c1sc(NC(=O)COc2ccccc2C)nc1C
  0	6.6	14	-21	-0.7	5	i	2	2	0.7
- N#Cc1c2n(c(=O)[nH]c1=O)CCCCC2
  4	3.0	·	-10	·	·	·	-7	-7	·
- Cc1ccn2cc(-c3cccc(S(=O)(=O)N4CC(C)OC(C)C4)c3)nc2c1 (stereo not given)
  -7	-13	-10	11	1.5	-5	i	97*	-2	5.1
- Cc1cc(N2CCN(C(=O)Nc3ccccc3C#N)CC2)c2ccccc2n1
  ·	-1.4	5	3	5.0	14	i	0	8	0.3
- O=S(=O)(c1cccc(C(F)(F)F)c1)N1CCN(c2nnnn2-c2ccccc2)CC1
  -1	2.9	·	-19	·	·	·	1	1	·
- O=C(O)CCCCCCCCc1cn(Cc2ccc(C(=O)c3ccccc3)cc2)nn1
  20	0.8	-31	56*	·	-16	i	-3	4	1.7
- O=c1c(-c2ccccc2)c(O)nc(SCCN2CCOCC2)n1-c1ccccc1
  -6	2.3	·	-11	·	·	·	-8	1	·
- CCOC(=O)c1sc(NC(=O)CCc2ccccc2)nc1C
  8	1.3	-3	-7	4.1	-6	i	-13	-3	-3.8
- O=[N+]([O-])c1cccnc1N1CCC(c2cc(-c3ccc(Cl)cc3Cl)n[nH]2)CC1
  1	-1.2	·	44	·	·	·	-12	-9	·
- COc1ccc(CCC(C)NC(=O)CCc2ccccc2)c(OC)c1 (stereo not given)
  -3	-4.4	-5	-1	-1.6	-3	i	-15	6	0.8
- CCCNC(=O)C1Cc2cc(S(=O)(=O)N3CCCC3)ccc2N1C(C)=O (stereo not given)
  ·	-0.3	10	-17	-1.3	-2	i	-8	-4	-2.5
- Cn1c(=NC(=O)c2ccco2)sc2ccccc21
  0	?	10	0	-1.5	9	i	·	-2	6.8
- Cc1cc(C)c(-n2c(SCC(=O)N3CCOCC3)n[nH]c2=O)c(C)c1
  -6	7.0	3	-9	-4.3	7	i	5	24	-0.9
- O=c1[nH]c2ccccc2[nH]c1=O
  -7	-3.4	6	9	2.7	9	i	-3	5	-2.7
- C#CCCOC(=O)N1C2=NC(C(=O)OC)=C(C(=O)OC)[C@@H]3N(CC=C)c4ccccc4[C@]23C[C@H]1C(=O)OC
  3	-4.1	4	-1	2.6	1	i	0	5	-2.4

An excerpt of these results, as a markdown table:
| Structure | Beta cell apopt | RanGTP-Impb inh | Ecoli rRNA inh OD600 | T cruzi inh | MLL AF4-AF9 inh | Ecoli rRNA inh | FGF22 binding | ALR H2O2 inh | Calb FLC | Ecoli rRNA inh RFP |
| --- | --- | --- | --- | --- | --- | --- | --- | --- | --- | --- |
| Cc1nc2ccc(S(=O)(=O)NCC(=O)N3CCc4ccccc43)cc2s1 | -7 | 0.2 | · | -5 | · | · | · | -15 | -3 | · |
| O=c1[nH]c2ccccc2[nH]c1=O | -7 | -3.4 | 6 | 9 | 2.7 | 9 | i | -3 | 5 | -2.7 |
| N#Cc1c2n(c(=O)[nH]c1=O)CCCCC2 | 4 | 3.0 | · | -10 | · | · | · | -7 | -7 | · |

Record cards (already shown). Order of screens: Beta cell apopt	RanGTP-Impb inh	Ecoli rRNA inh OD600	T cruzi inh	MLL AF4-AF9 inh	Ecoli rRNA inh	FGF22 binding	ALR H2O2 inh	Calb FLC	Ecoli rRNA inh RFP
Record of O=c1c(-c2ccccc2)c(O)nc(SCCN2CCOCC2)n1-c1ccccc1 = -6	2.3	·	-11	·	·	·	-8	1	·
Record of O=c1[nH]c2ccccc2[nH]c1=O = -7	-3.4	6	9	2.7	9	i	-3	5	-2.7
Record of Cn1c(=NC(=O)c2ccco2)sc2ccccc21 = 0	?	10	0	-1.5	9	i	·	-2	6.8
